# High-throughput results deposited in PubChem by National Center for Advancing Translational Sciences (NCATS).
# Cruzain inh noDet = inhibitors of Trypanosoma cruzi cruzain without detergent | 2.3% of 200,000 active | Potency, µM, for the others: max response, negative = inhibition, actives largely listed as inhibitors | purified cruzain, Z-FR-AMC fluorescence, no detergent | P25779 | AID 1476; active means well fitted curve in the direction sought with a large enough effect; inconclusive means small, poorly fitted or top-dose-only effect, or another doubt; inactive means no such curve, though single readings can be large; an effect the other way counts as inactive or inconclusive;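 further: plate controls were enzyme without inhibitor for no effect and buffer without enzyme for full effect; nearly all actives have a fitted effect of over 40% in size; top concentration of the series not given in the record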
# Target sequence (P25779 123-467 limits assumed): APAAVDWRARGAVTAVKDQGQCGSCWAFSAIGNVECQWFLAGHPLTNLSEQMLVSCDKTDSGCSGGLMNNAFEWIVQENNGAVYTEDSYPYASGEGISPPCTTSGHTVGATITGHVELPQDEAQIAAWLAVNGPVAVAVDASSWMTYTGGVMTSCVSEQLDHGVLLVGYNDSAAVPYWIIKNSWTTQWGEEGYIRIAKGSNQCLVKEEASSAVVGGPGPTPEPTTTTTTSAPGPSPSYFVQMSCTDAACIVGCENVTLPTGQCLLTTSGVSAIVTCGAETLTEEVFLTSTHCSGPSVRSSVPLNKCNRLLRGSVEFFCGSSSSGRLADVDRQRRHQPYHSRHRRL
#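 Purified cruzain at 1.5 nM, pre-incubated 15 min with compound at room temperature in 100 mM sodium acetate pH 5.5, 5 mM DTT, 0.00005% Triton X-100. Reaction started with 2 uM Z-FR-AMC; AMC fluorescence increase over 60 s gives rate.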
# RE007 growth inh = less growth of the S. pombe RE007 Vpr strain | 0.21% of 360,000 active | AID 651644 | S. pombe RE007 Vpr strain, BacTiter-Glo ATP luminescence, 24 h; control for the full effect not named in the record | Potency, µM (doses to about 92.2 µM), for inactives: at the top dose activity change, negative = less growth; active = well fitted falling curve with a large enough effect; inconclusive = small, poorly fitted or top-dose-only effect; inactive = no such curve, though single readings can be large or run the other way;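 further: on the % scale 0 is the no-effect control and ±100 the full control effect; nearly all actives have a fitted effect of over 50% in size; the assay follows cell death caused by Vpr and the record does not say whether a fall means rescue or toxicity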
#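 Fission yeast RE007 carrying one integrated HIV-1 vpr copy, seeded at OD 0.01 in PMG+AL medium with 23 nL pinned compound. Grown 24 h at 30 degrees; viability read by BacTiter-Glo luminescence after 5 min.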
# MARV entry inh = blocks Marburg virus binding to or entry into cells; Marburg virus pseudotyped entry inhibition, cell reporter; control for the full effect not named in the record; about a third of the inactives were read at about 46 µM; Potency, µM (highest dose often 37.8 µM), for inactives: at the highest dose activity change, negative = inhibition, hits mostly inhibitors; 1.8% of 300,000 active; AID 540276; active = well fitted inhibition curve with a large enough effect; inconclusive = small, poorly fitted or top-dose-only effect, or effect the other way; inactive = flat fitted curve, though single readings scatter; tested in HEK293 cells; about a fifth of its hits are not listed in these tables; further: on the % scale 0 is the no-effect control and ±100 the full control effect; luciferase read-out
# NS1 function inh = influenza NS1 inhibition. Potency, µM (top dose mostly 46.1 µM), inactives show at the top dose activity, positive = more growth. AID 2326. 0.4% of 270,000 active. S. cerevisiae slowed by influenza A NS1, growth recovery by OD600; further: actives are rising curves; nearly all actives have a fitted effect of over 50% in size
#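 A cell-based growth assay was used: compounds that relieve NS1-induced slow growth of budding yeast raise OD600. Assay medium was yeast nitrogen base with ammonium sulphate and -URA supplement, pH 6.0, with 2% galactose.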
# Cruzain inh Det = blocks cruzain activity in presence of Triton detergent; Potency, µM, without a hit: max response, negative = inhibition, actives largely listed as inhibitors; 0.43% of 200,000 active; P25779; purified cruzain, Z-FR-AMC fluorescence, 0.01% Triton; active means well fitted curve in the direction sought with a large enough effect; inconclusive means small, poorly fitted or top-dose-only effect, or another doubt; inactive means no such curve, though single readings can be large; an effect the other way counts as inactive or inconclusive;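 further: plate controls were neutral wells for no effect and buffer without enzyme for full effect; nearly all actives have a fitted effect of over 40% in size; top concentration of the series not given in the record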
#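 Compounds were screened in titration against cruzain (1.5 nM) with 0.01% Triton X-100 to counter colloidal aggregation. Activity was the AMC fluorescence increase over 60 s after adding 2 uM Z-FR-AMC at pH 5.5.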
# SARS PLpro yeast = inhibitors of SARS-CoV papain-like protease in yeast. 0.19% of 330,000 active. S. cerevisiae expressing SARS-CoV PLpro, growth rescue; control for the full effect not named in the record. AID 485353. Potency, µM (titrated, usually from 32.9 µM), without a hit: at the highest dose activity, positive = growth rescue; further: 0% is about no effect; nearly all actives have a fitted effect of over 55% in size; growth read by luminescence after 48 h
# 2A StopGo = lowers the luciferase signal of an FMDV 2A StopGo reporter | human cells with a luciferase reporter of 2A StopGo recoding; control for the full effect not named in the record | Potency, µM (titrated, usually from 57.9 µM), for inactives: at the highest dose signal change, negative = less light | 1.2% of 410,000 active | AID 1159524; active = well fitted falling curve with a large enough effect; inconclusive = small, poorly fitted or top-dose-only effect; inactive = no such curve, though single readings can be large or run the other way; tested in HEK293T cells; further: on the % scale 0 is the no-effect control and ±100 the full control effect; nearly all actives have a fitted effect of over 45% in size; luciferase light after 4 h
# LASV entry inh = Lassa virus entry inhibition; Lassa virus pseudotype entry inhibition, cell reporter; control for the full effect not named in the record; Potency, µM (doses to about 37.9 µM), for inactives: at the top dose activity change, negative = inhibition, most hits filed as inhibitors; 1.2% of 300,000 active; AID 540256; active means well fitted inhibition curve with a large enough effect; inconclusive means small, poorly fitted or top-dose-only effect, or effect the other way; inactive means flat fitted curve, though single readings scatter; tested in HEK293 cells; further: on the % scale 0 is the no-effect control and ±100 the full control effect; nearly all actives have a fitted effect of over 50% in size; luciferase read-out
# The depositor's hits bear a star; ? = inconclusive; · = not tested or not shown; & = joins results of further samples; [ ] = dose if it differs, or a comment. Unless noted, the call rests on the fitted dose curve; in most records, active means well fitted rising curve with a large enough effect; inconclusive means small, poorly fitted or top-dose-only effect; inactive means no such curve, though single readings can be large or run the other way. Potency means the concentration at half of the fitted maximal effect.
SMILES,Cruzain inh noDet,RE007 growth inh,MARV entry inh,NS1 function inh,Cruzain inh Det,SARS PLpro yeast,2A StopGo,LASV entry inh
O=c1cc(O)c2ccc(O)cc2o1,·,-7%,·,8%,·,2%,-9%,·
Cc1cccc(-c2nnc(SCC(=O)N3CCOCC3)o2)c1,·,-14%,?,2%,·,1%,29%,?
O=C1NC(=Nc2ccccc2)S/C1=C\c1cccn1-c1ccccc1,?,8%,?,5%,-8.4%,-16%,0%,?
Cc1cc(C)c(S(=O)(=O)NCCOc2ccccc2)c(C)c1-n1cnnn1,·,1%,?,·,·,0%,30%,11%
CC(CNS(=O)(=O)c1ccc(Cl)cc1)n1cncn1 (stereo not drawn),·,-10%,5%[46.1 µM],-8%,·,2%,23%,11%[46.1 µM]
COc1cc([N+](=O)[O-])ccc1NC(=O)CCCOc1ccccc1,3%,-2%,-19%,-16%,-9.3%,2%,-6%,-27%
O=C(COC(=O)/C=C/c1ccc(F)cc1)NC1CCCCCC1,·,5%,1%[46.1 µM],·,·,8%,-1%,19%[46.1 µM]
CC(=O)c1ccc(NC(=O)C2CCCN2S(=O)(=O)c2ccc(C)cc2)cc1 (stereo not drawn),0%,2%,5%,-10%,-2.4%,5%,0%,3%
CC(C)CNC(=O)c1cccc(NC(=O)c2ccc(Cl)c([N+](=O)[O-])c2)c1,3%,-8%,?,-12%,-4.6%,5%,28µM*,?
O=C(Nc1nnc(SCc2ccc(F)cc2)s1)c1ccc2ncsc2c1,?,7%,-34%,15%,-23%,0%,11%,14%
CCN1C(=NCCOC)N[C@@H](c2cccc(C(F)(F)F)c2)C(C(=O)OC)=C1C,·,-12%,·,12%,·,-2%&3%,-14%,·
Cc1ccc(NC(=O)Nc2cccc3ccccc23)cc1,·,-4%,·,3%,·,-2%,55%[activator],·
FC(F)(F)c1ccc(N2CCN(Cc3ccc4c(c3)OCO4)CC2)nc1,-15%,-11%,2%,-5%,-8.2%,5%,0%,-2%
CCCCn1c(N)c(N(CCC(C)C)C(=O)COC(=O)/C=C/c2ccc(F)cc2)c(=O)[nH]c1=O,·,6%,-3%,·,·,-7%,-25%,?
CCc1cnc2c(c1SCC(=O)N1CCC(C)CC1)c(=O)n(C)c(=O)n2C,3%,·,·,·,-2.4%,·,-10%,-28%[46.1 µM]
Cc1ccc(CNC(=O)COc2ccc(C(=O)c3ccc(F)cc3)cc2)cc1,0%,13%,-21%,4%,-4.9%,1%,-22%,?
CC1=N/C(=C/c2cc(Br)cc(Br)c2O)C(=O)O1,·,-2%,·,14%,·,1%,-12%,·
COc1cc(C(=O)N/N=C/c2ccc(OC(=O)c3ccccc3Cl)c(OC)c2)ccc1O,·,2%,7%,-5%,·,-2%,?,-4%
COC(=O)c1cc(Br)c(=O)n(Cc2ccc(OC)c(OC)c2)c1,-1%,7%,-10%,-3%,1.2%,2%,0%,-16%
O=C(CCC1N=C2c3ccccc3N=C(SCc3ccccc3F)N2C1=O)NCc1ccccc1 (stereo not drawn),2%,·,·,·,0.3%,·,-12%,-9%[46.1 µM]
CCOC(=O)Cn1c(=O)c(-c2cc(Br)ccc2N)nc2ccccc21,·,-7%,·,3%,·,1%,-4%,·
O=C(O)CCN1C(=O)c2ccc(Oc3ccc([N+](=O)[O-])cc3)cc2C1=O,·,-13%,9%,4%,·,-7%,-27%,?
CCN1CCCC1CNC(=O)C(=O)NC(C)C (stereo not drawn),·,-11%,15%[46.1 µM],0%,·,1%,4%,20%
COC(=O)c1ccc(NC(=O)COC(=O)C2CCC2)cc1,·,-13%,-21%[46.1 µM],·,·,-3%,1%,-1%
COc1ccc2nc3sc(C(=O)NCCCN4CCc5ccccc5C4)cc3cc2c1,-12%,-28%,?,2%,-18%,-19%,-10%,?

# Next entries follow:
SMILES,Cruzain inh noDet,RE007 growth inh,MARV entry inh,NS1 function inh,Cruzain inh Det,SARS PLpro yeast,2A StopGo,LASV entry inh
Cc1c(C(=O)O)oc2ccc(S(=O)(=O)N3CCC(C)CC3)cc12,8%,-3%,16%[46.1 µM],2%,2.3%,18%,-19%,8%
COc1cc(-c2nnn(CC(=O)NC3CCS(=O)(=O)C3)n2)ccc1OCc1ccccc1 (stereo not drawn),?,8%,-1%&17%,-3%,-3.1%,3%,49%[activator],4%
COC(=O)c1ccc2c(=O)n(CCCCCC(=O)NCc3ccccc3)c(=O)[nH]c2c1,-1%&-18%,-2%,?,4%,2.0%&-3.6%,-9%,-24%&5%,22%[46.1 µM]
C/C(=N\NC(=O)Cn1nnc2ccccc21)c1ccco1,·,1%,·,1%,·,1%,-18%,·
O=C1/C(=C\c2cc3c(cc2Cl)OCO3)N2CCC1CC2,-4%,0%,?,2%,-3.5%,-3%,-23%,1%
COc1cccc(C(=O)N2CCCN(C)CC2)c1OC,·,0%,?,-2%,·,-6%,-12%,13%[46.1 µM]
Cc1ccc2c(Cn3cc(C(F)(F)F)cc(Cl)c3=O)cc(=O)oc2c1,15%,·,5%,7%,2.4%,3%,·,0%
CCOc1ccsc1C(=O)NNC(=O)c1ccco1,·,5%,·,-1%,·,8%,-20%,·
COc1ccc(NC(=O)CCn2nc(-c3ccccc3OC)c3c(C)cc(C)nc32)cc1,?,·,-3%[46.1 µM],·,-6.3%,·,-18%,?
Cc1cccc(-n2ccnc2CN2CCN(C(C)C)C(CCO)C2)c1 (stereo not drawn),·,-7%,-15%[46.1 µM],-2%,·,-4%,28%,0%
O=C(O)c1ccc(-n2cccc2)cc1O,12%,1%,2%,-94%,6.7%,-1%,26%,-4%
COc1ccc(CCNC(=O)C2CCN(S(=O)(=O)c3ccc(NC(C)=O)cc3)CC2)cc1OC,·,2%,·,0%,·,2%,-19%,·
Cc1ccnc(NC(=O)C2CCN(S(=O)(=O)c3ccc(C)c(C)c3)CC2)c1,·,-10%,2%[46.1 µM],·,·,2%,-6%,8%
COc1cc(NC(=O)CSc2nc3nc(C)c(Cc4ccccc4Cl)c(C)n3n2)cc(OC)c1,-9%,·,·,·,0.9%,·,5%,?
COCCN=C1N[C@@H](c2ccc(Br)cc2)C(C(=O)OC)=C(C)N1Cc1ccccc1,·,1%,·,1%&1%,·,1%&-1%,-26%,·
COc1ccc(OC)c(NS(=O)(=O)c2cc(OC)ccc2OC)c1,-14%,-9%,4%,-6%,-1.9%,3%,·,6%
COc1ccc(C(=O)Nc2ccc(C)cc2C(=O)c2ccccc2)c(OC)c1,7%,14%,-48%,-14%,-9.8%,-21%,?,-7%
CCN(CC)S(=O)(=O)c1ccc2nc(COC(=O)c3n[nH]c4ccccc34)[nH]c2c1,?,-11%,-59%,2%,3.9%,1%,-12%,?
CN(C)S(=O)(=O)c1cccc(C(=O)N2CCN(Cc3ccccc3)CC2)c1,0%,8%,-11%,-1%,6.9%,13%,-8%,-7%
COc1ccc(CC(=O)NCc2cccc(CNC(=O)Cc3ccc(OC)c(OC)c3)c2)cc1OC,·,16%,·,0%,·,-7%,-24%,·
Cc1ccc2c(c1)c1c(c(=O)n(Cc3ccccc3)c(=O)n1Cc1cccc(C(F)(F)F)c1)n2C,-3%,·,·,·,-1.1%,·,-14%,7%[46.1 µM]
c1ccc(Cc2nn3c(Cn4cnc5ccccc54)nnc3s2)cc1,-6%,7%,-14%,-42%,1.6%,7%,14µM*,?
CCOC(=O)C(=O)C1=CN(Cc2ccccc2)C=C(C#N)C1,·,6%,6%[46.1 µM],-14%,·,-3%,2%,5%[46.1 µM]
CN(C)c1ccc(C(c2nnnn2C(C)(C)C)N2CCc3ccccc3C2)cc1 (stereo not drawn),2%,·,0%,-10%,-2.5%,0%,·,·
O=C(CSc1ncccn1)NC1CCCc2ccccc21 (stereo not drawn),·,-8%,-3%[46.1 µM],·,·,1%,58%[activator],-15%

# Whole records as entered above:
# COC(=O)c1ccc2c(=O)n(CCCCCC(=O)NCc3ccccc3)c(=O)[nH]c2c1 reads Cruzain inh noDet: -1%&-18%; RE007 growth inh: -2%; MARV entry inh: ?; NS1 function inh: 4%; Cruzain inh Det: 2.0%&-3.6%; SARS PLpro yeast: -9%; 2A StopGo: -24%&5%; LASV entry inh: 22%[46.1 µM]
# CN(C)S(=O)(=O)c1cccc(C(=O)N2CCN(Cc3ccccc3)CC2)c1 reads Cruzain inh noDet: 0%; RE007 growth inh: 8%; MARV entry inh: -11%; NS1 function inh: -1%; Cruzain inh Det: 6.9%; SARS PLpro yeast: 13%; 2A StopGo: -8%; LASV entry inh: -7%

# Laid out differently: entries from further up.
compound | Cruzain inh noDet | RE007 growth inh | MARV entry inh | NS1 function inh | Cruzain inh Det | SARS PLpro yeast | 2A StopGo | LASV entry inh
C/C(=N\NC(=O)Cn1nnc2ccccc21)c1ccco1 | · | 1% | · | 1% | · | 1% | -18% | ·
O=C1/C(=C\c2cc3c(cc2Cl)OCO3)N2CCC1CC2 | -4% | 0% | ? | 2% | -3.5% | -3% | -23% | 1%

# Continuation.
SMILES,Cruzain inh noDet,RE007 growth inh,MARV entry inh,NS1 function inh,Cruzain inh Det,SARS PLpro yeast,2A StopGo,LASV entry inh
O=C(Nc1nnc(-c2ccccc2SCc2ccccc2)s1)Nc1ccccc1F,3.2µM*,10%,1%,15%,-0.6%,0%,-11%,2%
O=C(NCc1ccc(F)cc1)c1cc(Sc2ccc(F)cc2F)nc2ccccc12,6%,·,·,·,0.7%,·,?,?
COc1ccc(CCNCc2ccccc2F)cc1,·,-4%,·,3%,·,1%,20%,·
CCc1ccc(NC(=O)CSc2ncc(S(=O)(=O)c3cc(C)ccc3C)c(=O)[nH]2)cc1,?,·,-18%[46.1 µM],·,-14%,·,-7%,·
Cc1cc2oc(=O)cc(CN(C)Cc3cccc(F)c3)c2cc1C,·,-18%,·,-5%,·,-6%,10%,·
COc1ccc(N(CC(=O)NC2CCCC2)C(=O)Cn2nnc(-c3ccc(C)cc3)n2)cc1OC,?,-3%,-10%,-13%,4.2%,5%,4%,-19%[14.3 µM]
CC1CCN(CC#CCOc2ccc(Cl)cc2)CC1,·,-11%,·,2%,·,-3%,-8%,·
